CapD inh: inhibitors of Bacillus anthracis CapD enzyme; z-score (test concentration not listed); purified CapD enzyme, fluorescence intensity read-out; hits give low values; some hits fall short of the stated cut; 0.23% of 140,000 active;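 active means z-score under -4 in either of two replicates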;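 further: stock transfer was 100 nL into about 40 µL; score is relative to mean and spread of the plate; one replicate is shown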
AID504770: growth inhibitors of E. coli YBA685 in a screen for V. cholerae RctB (chromosome II replication) inhibitors; 0.27% of 130,000 active; E. coli YBA685 rctB-dependent plasmid, OD600 growth, 3 h; hits give low values; z-score (no concentration beside the values);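 active means z-score under -2 on both plates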;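 further: wells of about 30 µL received 100 nL stock; score is relative to mean and SD of the test wells; the first replicate is given; strong numbers were not always called active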
The depositor's hits bear a star; nt = no result given; & = joins results of further samples.

Results follow in this order: CapD inh, AID504770
1	O=C(NCC1COc2ccccc2O1)c1cc(-c2ccncc2)nc2ccccc12 (centres undefined)
  -0.83, -0.65
2	CC(C)(C)C(=O)NC1CCN(CC(=O)N(C2CCCCC2)C2CCCCC2)CC1
  nt, -0.3
3	COC(=O)C(C#N)(Cc1ccccc1)Cc1ccccc1
  -0.71, -0.35
4	Oc1ccc(-c2onc3ccc(Cl)cc23)cc1
  nt, 0.5
5	CCC(Sc1nc2ccccc2n1CC)C(=O)O (centres undefined)
  0.14, -0.25
6	COC(=O)c1ccc(N2Cc3cccc(OC)c3Oc3ncccc32)s1
  79, 1.3
7	CN(C)CCNc1cnn(-c2ccccc2)c(=O)c1Cl
  -0.11, -0.25
8	COc1cc(C2C(C#N)=C(N)OC3=C2C(=O)CCC3)cc(OC)c1OC(=O)N1CCOCC1 (centres undefined)
  -0.26, nt
9	NC(=O)N1CCCC1C(=O)Nc1ccc2c(c1)CCC2 (centres undefined)
  nt, -0.15
10	O=C(CCN1C(=O)/C(=C\c2ccco2)SC1=S)NCCc1ccccc1
  nt, 0.1
11	Cc1cc(C)n(CCCO)c(=O)c1C#N
  nt, -2.9*
12	Cn1c(SCC(=O)c2ccc3[nH]c(=O)oc3c2)nnc1C1COc2ccccc2O1 (centres undefined)
  nt, 0.3
13	CCOc1ccc(/C(O)=C2/C(=O)C(=O)N(CCN3CCOCC3)C23C(=O)N(C)c2ccccc23)cc1 (centres undefined)
  -0.25, -0.05
14	O=C(O)C1C2C=CC(O2)C1C(=O)Nc1ccc(S(=O)(=O)NCCc2ccccc2)cc1 (centres undefined)
  -0.12, -0.85
15	CC(Sc1nc2ccccc2[nH]1)C(=O)Nc1ccc(S(N)(=O)=O)cc1 (centres undefined)
  nt, -0.95
16	CN1CCN(c2ccc(NC(=O)c3ccccc3)cc2)CC1
  -0.91, -0.25
17	Cc1ccc(-c2nnc(Nc3ccccc3)c3ccccc23)cc1S(=O)(=O)NCc1ccccn1
  -1.5, 1.8
18	COc1cc(N=C(N)N=C(N)N)cc(OC)c1
  0.38, nt
19	COCC(=O)Nc1cc(F)cc(F)c1
  -0.31, -0.5
20	CC1(NC(=O)CCN2c3ccccc3Sc3ccccc32)CCS(=O)(=O)C1 (centres undefined)
  nt, -0.1
21	CCCCCCOc1ccc(C2C3=C(CC(C)(C)CC3=O)NC3=C2C(=O)CC(C)(C)C3)cc1
  39, nt
22	CC1C=Cc2ccccc2N1C(=O)c1ccccc1 (centres undefined)
  -0.51, -0.65
23	C(=N\N1CCCCC1)/c1ccc2c(c1)OCO2
  nt, 2
24	OC(c1ccccc1)c1ccccn1 (centres undefined)
  -0.06, -1.1
25	COc1ccc(Cc2nc(-c3ccccc3)n[nH]c2=S)cc1
  -0.6, -0.45
26	COc1cc(OC)c(CN2CCN(S(=O)(=O)c3ccc(OC)c(OC)c3)CC2)cc1Br
  -0.2, nt
27	CC(C)(O)C#Cc1ccc(C2C3=C(CC(C)(C)CC3=O)OC3=C2C(=O)CC(C)(C)C3)cc1
  -0.64, nt
28	COC(=O)c1cc(=O)n(-c2ccccc2)c(=Nc2ccccc2)s1
  0.69, -0.8
29	Cc1ncc(S(=O)(=O)c2ccc(Cl)cc2)c(N)n1
  -0.23, -0.35
30	Cc1ccc(C)c(NC(=O)OCC(C)C)c1
  nt, -0.5
31	N#Cc1c(-c2ccccc2)nc(N2CCOCC2)[nH]c1=O
  0.01, -0.95
32	C[n+]1cc(C(=O)NCC[N+](C)(C)Cc2ccccc2)ccc1/C=N/O
  -0.91, -0.75
33	CN1CC(=O)N(CN2CCN(S(=O)(=O)c3ccc(Br)cc3Cl)CC2)C1=O
  nt, -0.15
34	CCOC(=O)c1c(C)n(-c2ccccc2)c2c1cc(OC(=O)c1ccccc1F)c1ccccc12
  -0.08, nt
35	CCOc1ccc(N2CC(C(=O)N(Cc3ccccc3)c3ccccn3)CC2=O)cc1 (centres undefined)
  nt, -0.45
36	CCOC(=O)c1c(NC(=O)CC)sc(C(=O)OC)c1C
  nt, -0.4
37	CCN(CC)S(=O)(=O)c1ccc(Oc2ccc(Cl)cc2C)nc1
  nt, 0.05
38	O=C(CSc1nc2ccccc2c(=O)n1C1CCCCC1)NCCc1ccccc1
  -0.97, nt
39	O=C(c1ccc2c(=O)n(Cc3ccc(Cl)cc3)c(=S)[nH]c2c1)N1CCN(c2ccccn2)CC1
  -0.17, nt
40	Cc1ccc(S(=O)(=O)Nc2c(C(=O)NCc3ccco3)c3nc4ccccc4nc3n2Cc2ccco2)cc1
  nt, -1

Single values from the entries so far.
`CN1CC(=O)N(CN2CCN(S(=O)(=O)c3ccc(Br)cc3Cl)CC2)C1=O` in AID504770 has -0.15
`O=C(c1ccc2c(=O)n(Cc3ccc(Cl)cc3)c(=S)[nH]c2c1)N1CCN(c2ccccn2)CC1` in CapD inh has -0.17
`CC(C)(C)C(=O)NC1CCN(CC(=O)N(C2CCCCC2)C2CCCCC2)CC1` in AID504770 has -0.3
`N#Cc1c(-c2ccccc2)nc(N2CCOCC2)[nH]c1=O` in CapD inh has 0.01
`C[n+]1cc(C(=O)NCC[N+](C)(C)Cc2ccccc2)ccc1/C=N/O` in CapD inh has -0.91
`COc1cc(N=C(N)N=C(N)N)cc(OC)c1` in CapD inh has 0.38

Following part.
Results follow in this order: CapD inh, AID504770
41	COc1ccc(-n2nc3c(c2NC(=O)CCc2ccccc2)CSC3)cc1
  -0.4, -1.2
42	N#Cc1c(NC(=O)COC(=O)c2ccc(F)cc2)sc2c1CCC2
  0.12, 0.35
43	CCCCCCn1c(CN2CCC(C(N)=O)CC2)nc2c1c(=O)n(C)c(=O)n2C
  -0.04, -0.7
44	CCN1C(=O)/C(=C\c2ccc(NC(=O)c3ccccc3Br)cc2)SC1=S
  0.85, 1.8
45	CN(Cc1cccc(Cl)c1Cl)C(=O)c1cc(Cl)ccn1
  nt, 0.1
46	C=CCn1c(SCC(=O)N(CC(C)C)CC(C)C)nc2scc(-c3ccco3)c2c1=O
  nt, 1.1
47	CCCC(=O)Nc1ccc(C(=O)NCC2CCCO2)cc1 (centres undefined)
  0.34, -0.35
48	CCCc1cc(=O)c2c(=O)n(-c3ccccc3)[nH]c2[nH]1
  -2.2, -0.7
49	CC(=O)Nc1nc2c(Br)cc(Br)cc2c(=O)s1
  1.4, 0.5
50	CCOC(=O)c1c(C)oc2c(Br)cc(NS(=O)(=O)c3ccc(C)cc3)cc12
  0.2, nt
51	O=C1NC(=O)N(c2ccc(Br)cc2)C(=O)/C1=C\c1ccc(O)c([N+](=O)[O-])c1
  -0.77, nt
52	CCNC(=O)c1ccc(Cl)s1
  0.36, -0.6
53	O=C(Nc1ccncc1)OCc1ccccc1
  nt, -0.95
54	COc1ccc2c(c1)N(C1CCCCC1)/C(=C1/SC(=S)N(C)C1=O)S2
  -0.44, nt
55	Cc1cc(-c2csc(N)n2)c(C)n1CC1COc2ccccc2O1 (centres undefined)
  nt, -0.15
56	O=c1[nH]c2c(c(=O)[nH]1)C(c1cc([N+](=O)[O-])c(N3CCOCC3)cc1N1CCOCC1)O2 (centres undefined)
  -0.01, nt
57	CCC(=O)NC1CCNCC1
  nt, -0.1
58	O=S(=O)(/N=C(\NNC(=S)Nc1cccc(C(F)(F)F)c1)N1CCCC1)c1ccccc1
  0.1, nt
59	CC(C)c1ccc(N2C(=O)C3N=NN(CC(=O)Nc4ccccc4)C3C2=O)cc1 (centres undefined)
  0.22, -0.45
60	O=C(Nc1ccccc1)NC1(C(=O)Nc2ccc(-n3cnnn3)cc2)CCCCC1
  nt, 0.2
61	Cc1ccc(N(C(=O)COc2ccccc2)C2C=CS(=O)(=O)C2)cc1 (centres undefined)
  -0.33, 1.6
62	Cc1cc(C)nc(N(C(=O)C2CC2)c2ccccc2C(F)(F)F)n1
  -0.36, nt
63	O=C1CCCCC1CNc1cccc(C(F)(F)F)c1 (centres undefined)
  0.29, -0.1
64	CC(=O)NC(Nc1cc(C)ccc1C)C(=O)c1ccccc1 (centres undefined)
  nt, -0.15
65	N#CC(C#N)=C(C(C#N)=C1Nc2ccccc2N1)c1ccccc1F
  nt, 0.7
66	COc1ccc(C2CCCN2C(=O)Nc2ccc(Cl)cc2)cc1OC (centres undefined)
  0.43, 0.1
67	Cc1ccc(S(=O)(=O)Nc2ccc(C(=O)NCCN(C)C)cc2)cc1
  -0.27, 1.6
68	Cc1c(C(=O)NCc2ccccn2)sc2ncnc(N3CCN(c4ccccc4F)CC3)c12
  -0.58, nt
69	CCOc1ccc(-n2c(SCC(=O)O)nc3ccccc32)cc1
  nt, 0.4
70	NC(N)=NC(=O)c1nc(Cl)c(N)nc1N
  -0.26&1.5, 0.3
71	CCc1cc(C(c2cccc(OC)c2)N2CCN(CCO)CC2)c(NC(=O)c2ccccc2)s1 (centres undefined)
  -0.45, -0.15
72	O=[N+]([O-])c1cc(S(=O)(=O)NC2CCCCC2)cc2c1-c1c(cc(S(=O)(=O)NC3CCCCC3)cc1[N+](=O)[O-])C2=NO
  -0.82, nt
73	O=C(O)c1ccc(CNC(=O)c2cocc2C(=O)O)o1
  -3.5, -0.45
74	Cc1cc(NC(=O)CSc2nc(NCCc3ccccc3)c3ccccc3n2)no1
  0.1, nt
75	C=C(C)Cn1c(CO)nc2ccccc21
  nt, 0
76	Cc1nnsc1C(=O)NC1CCCCCC1
  nt, 0.85
77	NC(=O)CSc1nc(N)nc(N)n1
  nt, 0.4
78	Cc1cc(C)n2nc(-c3ccc(Cl)cc3)cc2n1
  14, nt
79	O=C(NCC(F)(F)F)c1ccc2ccccc2n1
  nt, 1.4
80	CCOC(=O)C1C(=O)C=C(O)C(C(=O)OCC)C1c1ccc(OC)cc1 (centres undefined)
  0.4, nt
81	O=C(Cn1cnc2ccccc2c1=O)c1ccc(Cl)cc1
  0.005, -0.2
82	O=C(NCCOc1nnc(-c2ccccc2)o1)c1ccco1
  -0.57, 1.2
83	CN(C)C(=O)Oc1ccc(C2SCCS2)cc1
  -0.01, -1
84	COc1ccc(OCc2nnc(SCC(=O)NCc3ccco3)o2)cc1
  nt, 0.15
85	COc1ccc(S(=O)(=O)NC(Cc2c[nH]c3ccccc23)C(N)=O)cc1 (centres undefined)
  -0.59, nt
86	Cc1c(C(=O)N2CCN(c3ccc([N+](=O)[O-])cc3)CC2)sc2ncn(CC(=O)N3CCOCC3)c(=O)c12
  -0.53, nt
87	Cc1ccc2nc(NC3=NC(CC(=O)O)C(=O)N3)nc(C)c2c1 (centres undefined)
  46, -0.3
88	O=C(Nc1ccccc1C(=O)N1CCC(c2c[nH]c3ccccc23)CC1)C(c1ccccc1)c1ccccc1
  -0.43, nt
89	CCN1C(=O)/C(=C\c2ccc(N(C)C)cc2Cl)OC1=S
  -1.3, 1.6
90	OC1CC2CCC(C1)N2CCc1ccccc1 (centres undefined)
  -0.72, -1.1

Going on with the list:
Results follow in this order: CapD inh, AID504770
91	c1ccc(COc2ccc(Oc3ncccn3)cc2)cc1
  nt, -0.35
92	COC(=O)C1CCN(c2ncnc3scc(-c4ccccc4)c23)CC1
  nt, 1.1
93	CC1CCCC(NC(=O)C2c3ccccc3C(=O)N2CCc2ccccc2)C1C (centres undefined)
  -0.6, -0.65
94	COc1ccc(N2C(=O)C3ON(C4SC(=S)N(C)C4(C)C)C(c4ccc(Cl)cc4)C3C2=O)cc1 (centres undefined)
  -0.28, nt
95	CCc1cc(C(=O)OC)c(N2C(=O)C=CC2=O)s1
  -2, 2.5
96	CS(=O)(=O)c1ccc2nc(NC(=O)c3ccccc3Br)sc2c1
  1, -0.55
97	Cc1ccc(C(O)(C(=O)NNc2cc(Cl)ccc2Cl)c2ccc(C)cc2)cc1
  0.83, nt
98	Cn1c(=O)[nH]c(=O)c2c1nc(NC1CCCCC1)n2CC(O)COc1ccc([N+](=O)[O-])cc1 (centres undefined)
  0.39, nt
99	Cc1[nH]c(=O)[nH]c(=O)c1S(=O)(=O)N1c2ccccc2CC1C (centres undefined)
  0.36, -0.6
100	Cc1ccc(C)c(NC(=O)c2ccco2)c1
  0.83, -0.7

Some of the entries so far, screen by screen.
#94 COc1ccc(N2C(=O)C3ON(C4SC(=S)N(C)C4(C)C)C(c4ccc(Cl)cc4)C3C2=O)cc1 (centres undefined)
#95 CCc1cc(C(=O)OC)c(N2C(=O)C=CC2=O)s1
Screen / compound no. | 94 | 95
CapD inh | -0.28 | -2
AID504770 | nt | 2.5

Going on with the list.
Results follow in this order: CapD inh, AID504770
101	COc1cccc(Nc2nc(=O)[nH]nc2C)c1
  -0.15, 0.8
102	Cc1cccc(Oc2c(C(F)(F)F)oc3cc(OC(=O)c4ccco4)ccc3c2=O)c1
  -0.26, nt
103	COc1ccc(CNC(=O)CN2CCN(S(=O)(=O)c3ccccc3)CC2)cc1
  nt, -0.25
104	COc1cc(NC(C)C(=O)N2CCCCC2)cc(OC)c1 (centres undefined)
  nt, -0.4
105	Cc1noc(C)c1COC(=O)C(Cc1ccccc1)NC(=O)c1cccs1 (centres undefined)
  nt, -0.45
106	O=C(Nc1ccccc1)C1Cc2cc(Cl)ccc2O1 (centres undefined)
  nt, -0.4
107	CC(=O)Oc1ccccc1C(=O)Oc1ccccc1C(=O)O
  0.37, nt
108	O=c1c2cc(-n3cccc3)ccc2oc2ncccc12
  -0.11, -0.35
109	CC(=O)c1ccc(C2CC2(Cl)Cl)cc1 (centres undefined)
  0.05, nt
110	Fc1ccccc1-c1nnc2c3ccccc3nc(Nc3ccccc3)n12
  0.21, nt
111	Cc1ccc(C(=O)c2c(C)ccc3ccccc23)cc1
  0.02, nt
112	CCCN(CCC)S(=O)(=O)c1cccc(C(=O)Nc2ccccc2C(=O)NC2CC2)c1
  nt, -0.8
113	CC1(C)CC(CC#N)(Cc2ccccc2)CCO1 (centres undefined)
  nt, -0.1
114	COc1ccc(OCCCC(=O)n2c(C(C)O)nc3ccccc32)cc1 (centres undefined)
  nt, -1.5
115	Cc1cccc(-c2nn(-c3ccc(F)cc3)cc2C(=O)N2CCN(CCO)CC2)c1
  nt, -0.1
116	O=C(O)Cc1ccccc1C(=O)N1CCN(c2ccc(C(F)(F)F)cn2)CC1
  13, nt
117	COc1cc2c(cc1OC)CN(S(=O)(=O)c1ccc(-n3cnnn3)cc1)CC2
  0.17, 0.85

From PubChem BioAssay
